UCH37 DUB inh: human UCH37 deubiquitinating enzyme inhibition. inhibition, % (concentration not given with the values). hit rate 0.33% among 330,000. purified proteasome/UCH37, Ub-AMC cleavage fluorescence. Q9Y5K5;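 active means mean of two replicates above 20%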;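 further: 0% = compound-free wells with enzyme and 100% = wells lacking proteasome; stock transfer was 100 nL into about 20 µL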
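Signal – fluorescence, ex 355 nm, em 460 nm · System – Proteasome-bound UCH37 · Input – 0.15 nM proteasome as dispensed · Timing – 30 min preincubation with enzyme, 25 min cleavage at room temperature · Read-out basis – percent inhibition of cleavage signal versus uninhibited and no-proteasome wells · Medium – Tris-HCl pH 7.4 with ATP-MgCl2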
Beta cell apopt: blocks beta cell apoptosis; AID 435005; INS-1E cytokine-induced death, ATP luminescence, 48 h; percent of positive-control rescue, neutral wells zero; hit rate 0.8% among 300,000; protection from apoptosis, % (no concentration beside the values);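 active means all replicates at 75% or more, or half of them and the mean; inconclusive means half reach 75% but not the mean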;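 further: 0% = cytokine-treated negative control wells and 100% = positive control rescue; higher means more ATP so stronger rescue from cytokine killing; wells of about 40 µL received 100 nL stock; the first replicate is given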
Bfl-1 A1 inh: inhibitors of the anti-apoptotic protein A1, read as caspase activation; MEF A1-2A-BIM cells, Caspase-Glo 3/7 luminescence, 3 h; percent of clofoctol response, vehicle zero; caspase activation, % (test concentration not listed); hit rate 0.066% among 330,000;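 active means over half of replicate activation scores above 10%, or exactly half above 10 with the replicate mean above 10; inconclusive means replicate mean below 10 yet half the replicates above 10; inactive means over half of replicates below 10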;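 further: wells of about 30 µL received 50 nL stock; many hits fall short of the cut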
Calb FLC: C. albicans growth modulation with fluconazole; C. albicans CaCi-2 (fluconazole-resistant clinical isolate) + fluconazole, Alamar Blue growth, 48 h; AID 1979; hit rate 0.57% among 300,000; growth inhibition, % (no concentration beside the values);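 active means most replicates above 75%; inconclusive means exactly half above 75%; inactive means most below 75%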;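 further: all wells also contain fluconazole at 8 µg/ml as a sub-toxic cotreatment; 0% = median of DMSO wells and 100% = median of geldanamycin control wells; wells of about 8 µL received 7.5 nL stock; the first replicate is given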
LANA-H2B inh: blocks KSHV LANA binding to histone H2A/H2B; Q9QR71; cell-free LANA-H2A/H2B peptide, fluorescence polarization; inhibition, % (concentration not given with the values); hit rate 0.6% among 320,000; in the data active means inhibition mostly above about 10%, no sharp cut-off; inactive means mostly below about 6.7%;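 further: stock transfer was 7.5 nL into about 10 µL; 0% = median of vehicle wells and 100% = median of positive control wells; one replicate is shown; the record names a cut of 25% in any replicate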
Target sequence (Q9QR71 whole entry, looked up): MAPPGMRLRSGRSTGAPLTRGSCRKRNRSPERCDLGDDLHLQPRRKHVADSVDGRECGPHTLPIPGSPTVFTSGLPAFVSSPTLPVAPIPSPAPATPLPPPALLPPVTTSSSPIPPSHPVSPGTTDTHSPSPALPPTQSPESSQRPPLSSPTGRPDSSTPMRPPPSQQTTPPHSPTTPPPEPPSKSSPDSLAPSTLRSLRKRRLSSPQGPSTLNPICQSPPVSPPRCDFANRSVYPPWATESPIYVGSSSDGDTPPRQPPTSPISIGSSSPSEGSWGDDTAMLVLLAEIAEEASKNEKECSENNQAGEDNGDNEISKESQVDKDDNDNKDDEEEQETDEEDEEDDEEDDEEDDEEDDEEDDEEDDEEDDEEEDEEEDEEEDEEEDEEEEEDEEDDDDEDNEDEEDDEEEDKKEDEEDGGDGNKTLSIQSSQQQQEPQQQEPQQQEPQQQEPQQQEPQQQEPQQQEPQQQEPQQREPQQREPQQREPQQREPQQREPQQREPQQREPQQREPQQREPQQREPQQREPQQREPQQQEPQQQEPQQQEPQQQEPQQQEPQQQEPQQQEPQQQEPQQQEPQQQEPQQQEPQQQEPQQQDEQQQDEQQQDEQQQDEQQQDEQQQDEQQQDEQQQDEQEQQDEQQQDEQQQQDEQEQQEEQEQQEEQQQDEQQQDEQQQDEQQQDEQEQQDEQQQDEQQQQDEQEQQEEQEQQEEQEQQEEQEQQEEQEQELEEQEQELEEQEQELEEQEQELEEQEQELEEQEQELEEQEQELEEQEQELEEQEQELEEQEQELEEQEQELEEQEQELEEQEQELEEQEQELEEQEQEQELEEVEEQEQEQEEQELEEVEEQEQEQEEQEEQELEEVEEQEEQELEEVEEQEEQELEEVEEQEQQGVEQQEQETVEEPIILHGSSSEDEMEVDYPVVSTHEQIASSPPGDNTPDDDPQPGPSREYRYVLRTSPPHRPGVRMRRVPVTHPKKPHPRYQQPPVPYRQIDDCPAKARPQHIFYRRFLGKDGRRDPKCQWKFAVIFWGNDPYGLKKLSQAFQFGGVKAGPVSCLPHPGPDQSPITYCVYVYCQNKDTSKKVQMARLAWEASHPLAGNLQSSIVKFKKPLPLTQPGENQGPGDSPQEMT
RanGTP-Impb inh: disruptors of Ran-importin-beta complex formation – biochemical, FRET, CFP-Ran, YFP-importin-beta, homogeneous, primary screen; cell-free CFP-Ran/YFP-importin-beta FRET ratio; hit rate 1.1% among 300,000; inhibition, % (concentration not given with the values);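 active means most replicates above 15%; inconclusive means exactly half above 15%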;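 further: 0% = DMSO wells and 100% = Ran loaded with GDP instead of GTP; wells of about 40 µL received 100 nL stock; the first replicate is given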
Beta2AR agonist: activates human beta-2 adrenergic receptor causing internalization | Am2.2-beta2AR cells, FAP receptor internalization, flow cytometry; reference of the scale not given here | hit rate 0.43% among 340,000 | response, % (test concentration not listed) | P07550 | AID 504454;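 active means response above a set limit, near 3 SD of response in nonfluorescent compounds, cut at about 42% in these data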;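 further: stock transfer was 100 nL into about 11 µL; a reference agonist was the positive control; negative values mostly stem from fluorescent compounds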
T cruzi inh: T. cruzi replication inhibition; T. cruzi beta-gal in NIH3T3, luminescence, 90 h; inhibition, % (test concentration not listed); hit rate 1.4% among 300,000;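 active means mean inhibition across valid replicates above about 55%, limit read from the data; inconclusive means mean below that limit but half or more replicates reach it; inactive means mean below it, under half of replicates reach it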;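 further: signal also drops with host cell toxicity which is not excluded here; 0% = plate median of DMSO wells and 100% = zero luminescence signal; higher percent means less beta-gal luminescence so fewer parasites; stock transfer was 50 nL into about 50 µL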
Active calls of the source: *; ? = inconclusive; . = no result given.

SMILES	UCH37 DUB inh	Beta cell apopt	Bfl-1 A1 inh	Calb FLC	LANA-H2B inh	RanGTP-Impb inh	Beta2AR agonist	T cruzi inh
CNc1nc(C)c(C#N)cc1C(C)=O	-45	0	0.5	-5	1.9	-0.5	2	-11
Cc1ccn2c(=O)c(NC(=O)c3cccc4ccccc34)c(C)nc2c1	2.9	1	0.4	1	2.2	1.5	5	-3
CCOC(=O)c1c(C)[nH]c(C)c1S(=O)(=O)N1CCOCC1	-1.5	-6	0.8	-8	1.0	1.4	-9	-9
CC(=O)N(c1cccc(C)c1)C1SC(=O)N(c2ccccc2)C1=O (stereo unspecified)	1.4	-2	-1.2	11	0.1	-0.2	3	-3
c1ccc2c(c1)CC(N1CCCCC1)c1ccccc1S2 (stereo unspecified)	4.4	.	1.0	-7	-4.1	0.4	8	-30
Cc1nnc(NCc2ccccc2)c2ccccc12	0.2	2	0.2	4	-1.7	11	3	26
CN(Cc1nc(-c2ccccn2)no1)S(=O)(=O)c1ccc(Cl)cc1	3.3	-2	-0.2	-9	-0.4	0.4	-6	-9
CN(C(=O)c1ccccc1C(=O)OCC(=O)c1ccc(F)cc1)c1ccccc1	0.8	-5	0.0	.	-1.5	.	3	.
CCN1CC(CN(C)Cc2nc(-c3ccc(C(F)(F)F)cc3)no2)CC1=O (stereo unspecified)	1.2	6	-0.3	-5	-1.3	0.4	-5	-1
Cc1ccc(S(=O)(=O)N2CCN(c3ccccn3)CC2)cc1	1.5	-5	-0.5	-15	1.6	2.9	-9	3
CC(=O)c1cc(C(=O)Nc2ccc(C(=O)O)cc2)oc1C	5.2	-4	1.0	0	1.3	-1.1	-3	-2
COc1ccc(NS(=O)(=O)c2cccc(C(=O)N/N=C/c3cccs3)c2)cc1	.	0	0.0	-8	-1.4	4.3	-10	0
O=C(Nc1cccc(S(=O)(=O)N2CCOCC2)c1)c1c2c(nc3ccccc13)CCC2	-6.8	7	0.7	2	-4.8	1.4	-1	3
Cc1cccc(NC(=O)C2CC(=O)OC23CCCC3)c1 (stereo unspecified)	5.8	-6	-0.8	2	2.4	6.9	1	-4
C/C(=N\NC(=O)c1ccc(N/N=C(\C)c2ccncc2)cc1)c1ccncc1	.	-1	-0.3	-7	-1.8	0.8	4	24
N#C/C(=C(/O)COC(=O)CCc1ccc(S(=O)(=O)N2CCOCC2)cc1)c1nc2ccccc2[nH]1	.	-3	-0.5	-1	0.4	29*	-2	-6
CCN(CC)CCCNC(=O)CNC(=S)N(CCCN1CCOCC1)Cc1cccs1	3.1	-4	1.4	-5	-7.0	0.0	7	-11
CCc1nc(Nc2ccccc2)c2oc3ccccc3c2n1	-46	4	-1.0	28	12	0.1	-4	11
CC(=O)N(C1CC(C)C(C#N)(C#N)C1(C#N)C#N)N(C)C (stereo unspecified)	4.2	-13	0.3	-6	-1.7	4.7	23	-60
CNCC(O)Cn1c(C(F)(F)F)nc2ccccc21 (stereo unspecified)	-0.5	-5	0.3	8	-9.2	-3.1	-21	-1
COc1cccc(NC(=O)COC(=O)c2c(C)noc2C)c1	3.1	0	-0.1	.	4.8	.	4	.
Clc1ccc(C2=NCCn3nc4ccccc4c32)cc1	0.5	-1	0.7	8	-0.2	-1.7	-7	-18
CN(Cc1ccccc1)Cc1nc2c([nH]1)c(=O)[nH]c(=O)n2C	-0.2	1	-0.2	2	0.4	?	6	-10
Nc1ncnc(Nc2cc(Cl)cc(Cl)c2)c1[N+](=O)[O-]	.	0	-0.4	9	1.9	-3.6	-1	-3
Cc1ccc(C(=O)Cn2ncsc2=N)cc1	1.0	0	0.3	-39	4.0	-5.1	3	-7
COc1cc2c(cc1OC)-c1cc(NC3CC3)nc(=O)n1CC2	-3.5	-2	0.7	3	-5.2	-2.8	-1	7
COc1ccc(-c2cc3c(nn2)-c2ccccc2C3=O)cc1	1.7	32	-8.4	-42	-1.6	0.2	1	5
CC(C)N(C(=O)Cn1c(SCC(=O)N2CCN(c3ccccc3)CC2)nc2ccccc21)C(C)C	-0.2	-2	0.9	1	-1.6	4.8	.	-28
CCOC(=O)c1ccc(NC(=O)C2COc3ccccc3O2)cc1 (stereo unspecified)	-0.5	-2	-1.4	5	1.8	1.1	-7	-5
CC(OC(=O)CN1C(=O)NC2(CCCC2)C1=O)C(=O)Nc1cccc(Cl)c1 (stereo unspecified)	1.9	.	0.8	-7	3.7	-0.7	2	-14
O=c1cnnc(Nc2ccccc2)[nH]1	1.9	-2	0.2	11	-1.1	1.8	5	-16
Cc1c(F)cccc1NS(=O)(=O)c1ccc2c(c1)n(C)c(=O)c(=O)n2C	1.9	-2	0.0	2	2.6	-0.9	-9	-5
Cc1ccc(S(=O)(=O)N2CC=C(c3c(C)n(C)c4ccccc34)CC2)cc1	-0.3	-5	-0.4	-6	-2.2	-0.9	-1	16
CCOC(CNC(=O)c1cccn2c(=O)c3cc(Cl)ccc3nc12)OCC	-82	20	0.0	2	5.7	4.2	-9	14
COc1ccc(NC2CCCN(C(=O)CN3C(=O)c4ccccc4C3=O)C2)cc1OC (stereo unspecified)	5.3	5	0.8	38	2.7	-2.7	4	-5
O=C(Cc1ccccc1[N+](=O)[O-])NCCCc1ccccc1	-1.6	.	0.3	3	0.5	2.8	-5	1
CC1CN(C(=O)c2ccccc2OCc2ccccc2Cl)CC(C)O1 (stereo unspecified)	3.6	4	?	.	-491	.	-13	.
CC(=O)NC(=S)NNC(=O)C(c1ccccc1)c1ccccc1	-1.9	11	-0.3	29	-0.4	-2.0	0	17
CC(=O)NC1C(Oc2cccc(C)c2)OC2COC(c3ccco3)OC2C1O (stereo unspecified)	4.2	8	-0.2	-12	5.2	1.0	0	-4
Cc1ccc(CS(=O)Cc2ccc(C(=O)NCc3ccc(OC(C)C)cc3)o2)cc1 (stereo unspecified)	3.7	6	-0.7	36	5.9	1.5	-6	-5
CCc1cccc(C)c1NC(=O)C(c1ccc(O)cc1)N1CCC1=O (stereo unspecified)	-0.1	0	-0.2	4	-0.4	0.5	0	-13
Fc1ccccc1N1CCN(c2ncnc3nc[nH]c23)CC1	5.0	-7	-6.9	9	-1.2	-0.3	-5	-4
O=C(Nc1ccc(Br)cc1C(=O)O)c1ccc2c(c1)C(=O)N(Cc1ccccc1)C2=O	.	-6	?	17	4.3	4.5	4	-10
COc1ccc(-n2c(SCC(=O)NC3CC3)nc3ccccc3c2=O)cc1OC	2.0	-5	-0.3	.	2.6	.	-3	.
O=C(Nc1ccc(Cl)cc1)C1=Cc2cc(Cl)ccc2OC1	0.9	-3	-0.1	0	-1.2	0.2	-1	-8

Next section, starting with the last 2 of the part before.
SMILES	UCH37 DUB inh	Beta cell apopt	Bfl-1 A1 inh	Calb FLC	LANA-H2B inh	RanGTP-Impb inh	Beta2AR agonist	T cruzi inh
COc1ccc(-n2c(SCC(=O)NC3CC3)nc3ccccc3c2=O)cc1OC	2.0	-5	-0.3	.	2.6	.	-3	.
O=C(Nc1ccc(Cl)cc1)C1=Cc2cc(Cl)ccc2OC1	0.9	-3	-0.1	0	-1.2	0.2	-1	-8
COc1ccc(C(=O)NCc2cccnc2)cc1S(=O)(=O)N1CCOCC1	1.6	-4	0.6	43	-0.6	-0.3	-10	-2
O=C(Cn1c(=S)[nH]c2ccccc21)c1ccccc1	-0.4	-2	0.3	6	-5.0	2.1	-6	-12
O=C(NCCNCCO)C1(C(F)(F)F)C/C(=C\CCO)CCCO1 (stereo unspecified)	3.4	-6	0.1	0	-0.1	-8.7	9	1
CCOc1ccc(C(=O)NCCN2CCOCC2)cc1	-0.1	-13	0.3	?	-0.9	-2.2	4	2
O=C(C1CCOCC1)N1CCCC(N2CCN(c3ccc(F)cc3)CC2)C1 (stereo unspecified)	2.7	2	1.0	15	0.4	1.7	-1	-6
CSc1nc(C=Nc2ccccc2Cl)c(O)n1Cc1cccc(Cl)c1	-40	0	0.8	2	-2.9	4.5	-3	-5
O=S(=O)(Cc1nnnn1-c1ccccc1)c1ccc(Cl)cc1	4.3	0	0.4	11	0.5	-1.6	-4	-15
CCCCOc1ccc(-c2nc(-c3cccnc3)no2)cc1	4.5	-2	-5.5	-8	-1.9	3.5	-3	-38
Cn1c(N)c(C(=O)COC(=O)COc2cccc(Br)c2)c(=O)n(C)c1=O	-0.1	-2	0.3	.	-3.0	.	-3	.
CCN(C(=O)COC(=O)c1cc2ccccc2cc1O)C1CCS(=O)(=O)C1 (stereo unspecified)	-1.7	-9	1.8	24	0.6	-2.5	-2	-3
CN1CCN(C(=O)C2=C[C@@H](c3ccc(Br)cc3)C[C@@H](OCc3ccc(CO)cc3)O2)CC1	-0.6	0	-0.2	-1	-3.4	-1.2	-5	7
Cc1ccc(Cn2c(O)c(N=NC(=S)Nc3ccccc3F)c3cc(S(=O)(=O)N4CCOCC4)ccc32)cc1	13	.	.	42	.	6.1	24	-15
O=S(=O)(NCC1COc2ccccc2O1)c1ccccc1F (stereo unspecified)	7.3	0	-0.3	.	0.1	.	6	.
CS(=O)(=O)Nc1ccc(C(=O)Nc2ccc3ccccc3c2)cc1	-30	-1	-5.3	-4	2.0	2.5	14	-31
CCOc1ccc(C(C(=O)NC2CCCCC2)N(C(=O)c2ccccn2)c2cccnc2)cc1 (stereo unspecified)	-0.2	-2	-0.3	0	-0.2	-3.3	2	-8

3 entries already listed, sorted by number of heavy atoms, largest number first.
SMILES	UCH37 DUB inh	Beta cell apopt	Bfl-1 A1 inh	Calb FLC	LANA-H2B inh	RanGTP-Impb inh	Beta2AR agonist	T cruzi inh
Cc1ccc(Cn2c(O)c(N=NC(=S)Nc3ccccc3F)c3cc(S(=O)(=O)N4CCOCC4)ccc32)cc1	13	.	.	42	.	6.1	24	-15
CN1CCN(C(=O)C2=C[C@@H](c3ccc(Br)cc3)C[C@@H](OCc3ccc(CO)cc3)O2)CC1	-0.6	0	-0.2	-1	-3.4	-1.2	-5	7
O=C(Cn1c(=S)[nH]c2ccccc21)c1ccccc1	-0.4	-2	0.3	6	-5.0	2.1	-6	-12

(further entries)
SMILES	UCH37 DUB inh	Beta cell apopt	Bfl-1 A1 inh	Calb FLC	LANA-H2B inh	RanGTP-Impb inh	Beta2AR agonist	T cruzi inh
O=C(/C=C/c1c[nH]c2ccccc12)c1ccccc1	-7.7	-4	-0.1	5	-4.4	55*	13	23
CCCC1=C(C(=O)OCC)C(c2ccc(OC)c(C)c2OC)C(C#N)=C(N)O1 (stereo unspecified)	31*	-3	0.4	0	3.5	-2.6	-2	4
ClCC1CSC(=NC23CC4CC(CC(C4)C2)C3)O1 (stereo unspecified)	-1.6	-1	-0.5	2	1.2	-1.5	-11	5
CCCC1(c2ccccc2)NC(=O)N(CC(=O)c2[nH]c(C)c(C(=O)OCC)c2C)C1=O (stereo unspecified)	1.7	8	0.0	52	-2.2	4.9	5	31
CC(C)C(=O)Nc1nnc(CCN2CCCCC2)s1	0.9	-3	-0.7	3	3.1	3.7	1	-6

Source: PubChem BioAssay

Rows were taken by chance. About 4.3% of those tested had a hit in this group.
